nsP2pro inh: inhibitors of chikungunya virus nsP2 protease. 31,000 compounds, 1.1% hits. AID 1964107. FRET peptide cleavage, nsP2pro, fluorescence 1 h. Potency, µM (doses to about 24.9 µM), for the others: top-dose activity change, negative = inhibition, hits mostly inhibitors. Q8JUX6; active means well fitted inhibition curve with a large enough effect; inconclusive means small, poorly fitted or top-dose-only effect; inactive means no such curve, though single readings can be large or run the other way; also: nearly all actives have a fitted effect of over 60% in size; a reference inhibitor and vehicle were the controls
* hit, by the source's call; i = inactive; ? = inconclusive; & = joins results of further samples; [ ] = remark or other dose. % is scaled to controls: 0 for no effect and ±100 for the full control effect; potency is read from the fitted curve at half-maximal effect. An excerpt; count on the stated rates, not on these rows.

Structure,nsP2pro inh
CC[C@H](C)C(=O)O[C@H]1C[C@H](O)C=C2C=C[C@H](C)[C@H](CC[C@@H](O)C[C@@H](O)CC(=O)O)[C@H]21,5%
O=C1[C@@H]2[C@H]3CC[C@H](C3)[C@@H]2C(=O)N1CCCCN1CCN(c2ncccn2)CC1,-5%
Cc1cc(CN2CCC23Cc2ccccc2NC3=O)no1 (stereo not drawn),-16%[39.2 µM]
COC(=O)c1ccc(OC(CO)C(O)c2ccc(O)c(OC)c2)c(OC)c1 (stereo not drawn),6%
CCOCCn1c(=O)[nH]c2cc(C(=O)NCCn3cnnc3)ccc21,1%
COc1ccc(N(Cc2cccs2)C(=O)Nc2cccc(Cl)c2)cc1,3%
CN(CCc1ccccc1)[C@@H]1[C@H](O)[C@H](CO)O[C@@H]1CNS(=O)(=O)c1cccs1,-9%
Cc1cc2c(s1)c1cnn(Cc3c(F)c(F)c(C)c(F)c3F)c(=O)c1n2C,2%
COc1ccc(NC(=O)N2Cc3[nH]cnc3C[C@H]2c2nc(-c3ccc(C(F)(F)F)cc3)no2)cc1,i
C/C=C/C1=CC2=C(CO1)C(=O)C(C)(O)C(OC(=O)c1c(C)cc(OC)cc1O)C2 (stereo not drawn),-1%
Cc1cc(-c2nnc3n2CCCCC3)c(C)n1-c1cccc(C#N)c1,?
COc1ccc(C)cc1NC(=O)CSc1nc(=O)n(Cc2ccccn2)c2c1CCC2,-11%
Oc1c(C(c2ccccc2)N2CCC(O)CC2)sc2nc(-c3ccco3)nn12 (stereo not drawn),-15%
Cc1cccc2sc(N3CCN(C(=O)CS(=O)(=O)c4ccc(F)cc4)CC3)nc12,2%
CS(=O)(=O)N1C[C@H]2CCN(C(=O)c3cc(F)ccc3F)C[C@H]21,-13%
COCCOC(=O)C1=C(C)NC(C)=C(C(=O)OC(C)C)C1c1cccc([N+](=O)[O-])c1 (stereo not drawn),3%
Cc1oc2ccc(O)c(CN(C)Cc3ccccc3)c2c1C(=O)Nc1ccccc1,-2%
COCCNC(=O)Cn1cc(S(=O)(=O)Cc2ccccc2Cl)c2ccccc21,-17%
CCCCCCNC(=O)Nc1nnc(-c2ccncc2)s1,2%
CC(=O)Nc1cccc(-c2csc(Nc3cc(C)ccn3)n2)c1,i
O=S(=O)(Nc1ccc(C(F)(F)F)cc1)c1ccc2c(c1)OCCO2,-8%
CC(C)CC(=O)N1CC[C@@H]2COCCN(C)[C@@H]2C1,-19%
Nc1nonc1-c1nc2cnccc2n1C1CC1,-2%
COc1ccc(-n2ncc3c(NC4CCCC4)ncnc32)cc1,?
COC1=C(C(=O)O)N2C(=O)[C@@H](NC(=O)[C@H](N)C3=CCC=CC3)[C@H]2SC1,-15%
CCCSc1nc(=O)c2c(n1C)NC(=O)CC2c1cccc(F)c1F (stereo not drawn),-12%
COc1cccc(C(=O)Nc2ccc3nc(SCCOc4ccccc4)sc3c2)c1,-21%
COc1cc(/C=C/C(=O)O[C@@H]2C[C@@](O)(C(=O)O)C[C@@H](O)[C@@H]2O)ccc1O,26%
O=C(c1ccc[nH]1)N1CCC(n2cc(-c3nc(C4CC4)no3)nn2)C1 (stereo not drawn),?
Nc1c(C(=O)Nc2ccc(F)cc2)sc2nc(-c3cccs3)cc(C(F)(F)F)c12,19%&-14%

The last 6 records of the section before lead into the next:
Structure,nsP2pro inh
COC1=C(C(=O)O)N2C(=O)[C@@H](NC(=O)[C@H](N)C3=CCC=CC3)[C@H]2SC1,-15%
CCCSc1nc(=O)c2c(n1C)NC(=O)CC2c1cccc(F)c1F (stereo not drawn),-12%
COc1cccc(C(=O)Nc2ccc3nc(SCCOc4ccccc4)sc3c2)c1,-21%
COc1cc(/C=C/C(=O)O[C@@H]2C[C@@](O)(C(=O)O)C[C@@H](O)[C@@H]2O)ccc1O,26%
O=C(c1ccc[nH]1)N1CCC(n2cc(-c3nc(C4CC4)no3)nn2)C1 (stereo not drawn),?
Nc1c(C(=O)Nc2ccc(F)cc2)sc2nc(-c3cccs3)cc(C(F)(F)F)c12,19%&-14%
COc1cc2c(c(OC)c1CC=C(C)C)C[C@H](c1ccc(O)cc1O)CO2,15%
CCc1cccc(NC(=O)Cn2ccn3nc(-c4ccc(OC)c(OC)c4)cc3c2=O)c1,-16%
COc1ccc(CCNC(=O)C2CCN(S(=O)(=O)c3c(C)noc3/C=C/c3ccc(C)cc3)CC2)cc1OC,-15%
CC(C)C[C@@H](NC(=O)[C@@H]1C[C@@H](NC(=O)c2cnccn2)CCN1C(=O)COCC(=O)O)C(N)=O,4%
O=C1c2ccccc2C(=O)C1c1ccccc1,1%
CN(C)Cc1nnc(C2CC(NC(=O)c3cc(-c4ccsc4)n[nH]3)C2)n1C (stereo not drawn),-1%
O=C(NCc1nnc2c(-c3nc(C4CC4)no3)cccn12)C1CC1,-4%
COc1ccccc1CNC(=O)CCC1N=C2c3ccccc3N=C(SCC(=O)Nc3ccc(F)cc3)N2C1=O (stereo not drawn),-14%
Cc1ncc2n1C(=O)N(C1CCN(C(=O)NC3CCCC3)CC1)C2,-11%[39.2 µM]
CCN1C(=O)C2(c3ccccc31)c1c(oc3ccccc3c1=O)C(=O)N2CCOC (stereo not drawn),-11%
Cc1ccc(Nc2c(-c3ccc(C)s3)nc3ncccn23)cc1,-17%
Cc1ccc2nc(NC(=O)CSc3nc4c(c(=O)n3-c3ccc(F)cc3)SCC4)sc2c1,-7%
Cc1cccc(NC(=O)c2ccc3nc(CCc4ccccc4)oc3c2)c1C,-8%
CCn1ccc(C(=O)N2C[C@@H]3CCCN4CCC[C@@H]([C@H]34)[C@H]2CCCC(=O)NCC2CC2)n1,-19%
Cc1cccc(N2CCN(C(=O)c3cccn4c(=O)c5cc(Cl)ccc5nc34)CC2C)c1 (stereo not drawn),-25%
Cc1ccc(OCC(=O)Nc2nnc(SCc3cc(=O)c4ccccc4[nH]3)s2)cc1,-8%
S=c1nc[nH]c2nc[nH]c12,?
COC[C@H]1CCCN1Cc1cn(-c2ccccc2C)nc1-c1ccc(OC)c(F)c1,i
COc1ccc2c(c1)C(C(=O)N(Cc1ccc(N(C)C)cc1)c1ccc(C(C)C)cc1)CCC2 (stereo not drawn),9%
O=[N+]([O-])c1ccc(C(c2sc3nc(-c4ccco4)nn3c2O)N2CCN(c3cccc(Cl)c3)CC2)cc1 (stereo not drawn),-14%
COC(=O)c1sc2cccc(F)c2c1S(=O)(=O)NC(C)c1ccccc1 (stereo not drawn),-17%
CCOc1ccc(NC(=O)CC2C(=O)N(c3ccc(F)cc3)C(=O)N2CCc2sccc2C)cc1 (stereo not drawn),-14%
COCC1CN(Cc2ccncc2)CC12CCNCC2 (stereo not drawn),13%
CC(=O)c1ccc(N2CCN(S(=O)(=O)c3ccc4[nH]c(=O)oc4c3)CC2)cc1,i
COC(=O)c1ccccc1NC(=O)c1cnc2c(-c3cccc(C)c3)c(C)nn2c1C,-16%
CCN1C(=O)N(Cc2cccc(OC)c2)C(=O)C12CCN(Cc1nc3ccccc3n1C)CC2,i
CC(C)NC(=O)N1CCNC[C@@H]1C(=O)N[C@@H](CC1CCCCC1)C(N)=O,-7%[39.2 µM]
Cc1ccc(-c2[nH]ncc2CN2CC[C@@](C)(O)[C@H](N3CCCC3)C2)cc1,i
COc1ccc(C)cc1NS(=O)(=O)c1c(C(=O)N2CCCCCC2)c(C)n(C)c1C,-16%
COc1ccc(-n2nc(C)c([C@@H]3C=C[C@@H](NCc4ccc(F)cc4)C3)c2C)cc1,-11%[39.2 µM]

> NC[C@@H]1O[C@H](O[C@H]2[C@H](O)[C@H](O[C@H]3[C@@H](O)[C@H](N)C[C@H](N)[C@H]3O[C@H]3O[C@H](CN)[C@H](O)[C@H](O)[C@H]3N)O[C@@H]2CO)[C@@H](N)[C@@H](O)[C@@H]1O
  nsP2pro inh: -14%[2.68 µM]
> CCc1cc2c(cc3c(=O)n(CC(=O)NCCc4ccc(OC)c(OC)c4)ncn32)s1
  nsP2pro inh: -18%
> CC(=O)Nc1sc2c(c1-c1ccc(C(F)(F)F)cc1)CCNC2
  nsP2pro inh: -10%
> CC(NC(=O)Nc1cc(Cl)ccc1Cl)c1c(-n2cccc2)sc2c1CCCC2 (stereo not drawn)
  nsP2pro inh: -13%
> O=C(NCC(c1cccnc1)N1CCc2ccccc2C1)C(=O)Nc1ccc(Cl)cc1 (stereo not drawn)
  nsP2pro inh: 4%
> O=C1CCCC2=C1C(c1[nH]ncc1Cl)N=C(Nc1nc3c(Br)cccc3o1)N2 (stereo not drawn)
  nsP2pro inh: i
> CC(C)N(C)C1CCN(S(=O)(=O)c2ccc3[nH]c(=O)ccc3c2)CC1
  nsP2pro inh: -25%
> O=C(Cn1ccn(-c2ccc(F)c(F)c2)c(=O)c1=O)c1ccc(F)cc1
  nsP2pro inh: -26%
> Cc1ccc(CNC(=O)CN2C(=O)CC(c3ccc(C)c(C)c3)=Nc3ccccc32)cc1
  nsP2pro inh: -21%
> COC(=O)c1cc(OC)c(O[C@@H]2O[C@@H](C)[C@H](O)[C@@H](O)[C@H]2O)c(OC)c1
  nsP2pro inh: -4%
> Cc1ccc(S(=O)(=O)N(CCc2ccccc2)CC(=O)Nc2cc(C)ccc2C)cc1
  nsP2pro inh: -17%
> CCCNC(=O)N1CCCC2(CCC(=O)N(Cc3cnc(C)cn3)C2)C1 (stereo not drawn)
  nsP2pro inh: i
> CSc1ccc(CCNC(=O)C2CCCN(S(=O)(=O)N(C)c3ccc(F)cc3)C2)cc1 (stereo not drawn)
  nsP2pro inh: -12%
> Cn1ccnc1CN1CCOC[C@H](Oc2ccc(C(F)(F)F)cc2)C1
  nsP2pro inh: i
> CC(=O)N(c1onc(C)c1C)S(=O)(=O)c1ccc(N)cc1
  nsP2pro inh: -10%

> COc1ccc(C2Nc3ccccc3C(=O)N2Cc2ccccc2)cc1Oc1ccc(NC(C)=O)cc1 (stereo not drawn)
  nsP2pro inh: ?
> COc1ccc(Nc2c(-c3ccccn3)nc3ccc(Cl)cn23)cc1
  nsP2pro inh: 66%[activator]
> Cc1cccc(OCc2nc(C#N)c(NCc3ccccc3Cl)o2)c1
  nsP2pro inh: -13%
> O=[S+]([O-])(Nc1ccc(N2CCNCC2)cc1)c1ccc(NCc2cccc(Cl)c2O)cc1
  nsP2pro inh: i
> COc1ccc(C2Nc3ccccc3C(=O)N2Cc2ccccc2C(F)(F)F)cc1COc1ccc(NC(C)=O)cc1 (stereo not drawn)
  nsP2pro inh: -9%
> CN(CCNC(=O)C1CCCCC(=O)N1Cc1ccccc1)C1CCCCC1 (stereo not drawn)
  nsP2pro inh: -5%
> Cc1cc2c(cc1S(=O)(=O)CCC(=O)N1CCN(c3ccccc3)CC1)OCC(=O)N2
  nsP2pro inh: -22%
> CC(=O)Nc1sc2c(c1-c1nccs1)CCNC2
  nsP2pro inh: i
> Cn1nc(C2CCCC2)cc1N[S+](=O)([O-])c1ccccc1
  nsP2pro inh: -11%[39.2 µM]
> CN(C)c1cccc(-c2cc(N3CCC(C(N)=O)CC3)ncn2)c1
  nsP2pro inh: i
> Cc1noc(-c2ccccc2OCC(=O)Nc2ccccc2[N+](=O)[O-])n1
  nsP2pro inh: -11%
> CCC/C=C\C=C/CCc1cc(O)c([C@@H]2O[C@H](CO)[C@@H](O)[C@H](O)[C@H]2O)c(O)c1C(=O)OC
  nsP2pro inh: ?
> O=c1c2ccccc2nc2sc(Nc3cccc(Cl)c3)nn12
  nsP2pro inh: -10%
> COc1ccc(NC(=O)CSc2nc3ccncc3[nH]2)c(OC)c1
  nsP2pro inh: -9%
> N#C/C(=C/c1cn(Cc2ccccc2Cl)c2ccccc12)C(=O)Nc1cccc(Cl)c1
  nsP2pro inh: -21%

Grouped by structure, the entries above containing a cyano group.
> Cc1cc(-c2nnc3n2CCCCC3)c(C)n1-c1cccc(C#N)c1
  nsP2pro inh: ?
> Cc1cccc(OCc2nc(C#N)c(NCc3ccccc3Cl)o2)c1
  nsP2pro inh: -13%
> N#C/C(=C/c1cn(Cc2ccccc2Cl)c2ccccc12)C(=O)Nc1cccc(Cl)c1
  nsP2pro inh: -21%

Later entries
> CCOC(=O)N1CCC(NC(=O)c2cnn(-c3ccc(F)cc3F)c2C2CCN(C(=O)OC(C)(C)C)CC2)CC1
  nsP2pro inh: -14%
> CC(C)(C)OC(=O)N1CCN(c2ccc(NCc3occc3-c3ccc(C#N)cc3)cc2)CC1
  nsP2pro inh: i
> N#Cc1ccc(CN2CCC3(CCNCC3)CC2)cc1
  nsP2pro inh: 10%
> Cc1cc(S(=O)(=O)Nc2cnccc2C(=O)Nc2nc(-c3ccccc3)cs2)c(C)o1
  nsP2pro inh: i
> N#Cc1ccc(CN2CCC3(CC(c4cccc(C(F)(F)F)c4)=NO3)C2)cc1 (stereo not drawn)
  nsP2pro inh: -14%
> COC1OC(=O)C2=C1C1(C)CCCC(C)(C)C1CC2O (stereo not drawn)
  nsP2pro inh: ?
> OC[C@@H]1CNC[C@H]1C1CCN(C2CNC2)CC1
  nsP2pro inh: i
> Nc1ncnc2c1C(c1ccccc1)c1c(ccc3ccccc13)O2 (stereo not drawn)
  nsP2pro inh: 0%
> CCC[C@@]1(CCc2ccccc2)CC(O)=C([C@H](CC)c2cccc(NS(=O)(=O)c3ccc(C(F)(F)F)cn3)c2)C(=O)O1
  nsP2pro inh: ?
> COCC(=O)N1CCC(Oc2ccccc2C(=O)N(C)Cc2ncccc2C)CC1
  nsP2pro inh: i
> COc1ccccc1-c1nnc(SCC#CCOC(=O)c2ccc(F)cc2)o1
  nsP2pro inh: 0%
> Cn1c2cc(B(O)O)sc2c2cnn(Cc3ccccc3F)c(=O)c21
  nsP2pro inh: i
> Cc1cccc(C)c1NC(=O)C(C)N (stereo not drawn)
  nsP2pro inh: -2%
> CCOc1ccc(Br)cc1C1C(C(=O)Nc2ccccc2OC)=C(C)Nc2nnnn21 (stereo not drawn)
  nsP2pro inh: -10%
> Cn1ncc(N2CCC(NC(=O)C3CCOCC3)CC2)cc1=O
  nsP2pro inh: 2%
> C=CCOc1ccccc1OCC(O)CNC(C)C (stereo not drawn)
  nsP2pro inh: 23%
> c1csc(CN2CCn3c(nnc3C3CCCNC3)C2)c1 (stereo not drawn)
  nsP2pro inh: -17%[39.2 µM]
